KCNQ2 enhance = potentiators of rat KCNQ2 potassium channel; O88943; CHO-K1 KCNQ2, FluxOR thallium flux fluorescence; hits give high values; B-score at 10 µM; hit rate 0.54% among 310,000; AID 2239;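 active = fluorescence ratio B-score at least 3 SD of library B-scores, with initial fluorescence B-score within 3 SD, cut at about 5.3 in these data; same plate scores as AID 2156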;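 note: B-score of peak minus minimum over baseline fluorescence ratio after K+ and Tl+ stimulus; positive B-score means potentiation of KCNQ2 with more thallium influx and brighter signal; only the inactives scoring about 0 or higher are listed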
Target sequence (O88943 whole entry, looked up): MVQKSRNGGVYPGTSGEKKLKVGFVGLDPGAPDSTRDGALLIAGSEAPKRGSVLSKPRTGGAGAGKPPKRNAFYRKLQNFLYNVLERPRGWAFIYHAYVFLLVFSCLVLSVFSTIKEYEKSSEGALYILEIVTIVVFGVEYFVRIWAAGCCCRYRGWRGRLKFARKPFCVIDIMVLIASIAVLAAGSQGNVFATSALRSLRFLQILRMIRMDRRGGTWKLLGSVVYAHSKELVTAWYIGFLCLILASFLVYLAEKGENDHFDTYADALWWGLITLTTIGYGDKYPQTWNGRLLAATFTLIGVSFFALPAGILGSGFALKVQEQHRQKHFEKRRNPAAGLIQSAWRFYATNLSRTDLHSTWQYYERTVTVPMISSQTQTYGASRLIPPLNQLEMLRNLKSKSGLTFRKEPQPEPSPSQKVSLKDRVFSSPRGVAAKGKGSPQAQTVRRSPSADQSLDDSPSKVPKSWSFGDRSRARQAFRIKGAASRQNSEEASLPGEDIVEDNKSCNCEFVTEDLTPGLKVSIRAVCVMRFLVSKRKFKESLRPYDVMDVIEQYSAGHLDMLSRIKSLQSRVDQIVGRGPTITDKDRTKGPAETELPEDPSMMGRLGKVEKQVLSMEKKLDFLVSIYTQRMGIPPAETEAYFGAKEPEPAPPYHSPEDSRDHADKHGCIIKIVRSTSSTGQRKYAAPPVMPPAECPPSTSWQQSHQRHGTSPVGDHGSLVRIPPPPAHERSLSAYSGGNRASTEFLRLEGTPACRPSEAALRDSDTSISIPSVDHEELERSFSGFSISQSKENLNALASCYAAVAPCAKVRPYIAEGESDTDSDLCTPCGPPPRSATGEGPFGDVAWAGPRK
KCNQ2 enhance baseline = recorded beside KCNQ2 enhance, whose call it bears; B-score; compound at 10 µM; measured here: initial fluorescence intensity artifact check;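 brightness before thallium and not channel activity; 0 = typical well and far values either way flag optical interference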
Numbers without * were called inactive. A portion of the library (hit frequency here may not be typical).

KCNQ2 enhance	KCNQ2 enhance baseline	SMILES
0.84	0.73	C=CCn1c(SCC(=O)c2c(N)n(C)c(=O)n(C)c2=O)nnc1-c1ccccc1F
0.76	0.27	CCOC(=O)c1ccccc1N/C=C1\CCCCC1=O
0.04	-0.6	O=C(NC1CCCC1)c1ccc(CSc2nc3ccncc3n2Cc2ccc(F)cc2)cc1
1.7	1.1	COc1cccc2sc(Nc3nc(C)c(C(C)=O)s3)nc12
0.61	0.55	O=C(Cc1c[nH]c2ccccc12)Nc1ccc(N2CCOCC2)cc1
0.75	-0.3	CCCNC(=O)C(=O)Nc1ccc(N(C)C)cc1
1.1	-1	COC(=O)c1ccc(COc2cccc(C)c2C)cc1
0.44	0.37	Cc1nn(CC(=O)NCc2ccc(Cl)cc2)c(C)c1[N+](=O)[O-]
0.35	2.8	COc1ccc(NC(=O)CSc2n[nH]c(-c3ccncc3)n2)c([N+](=O)[O-])c1
0.54	0.91	Cc1ccc(CCNC(=O)c2ccc(CS(=O)(=O)Cc3ccc(F)cc3)o2)cc1
0.16	-0.02	COc1cc(/C=N\NC(=O)C2C(=O)NCC2c2ccccc2)cc(OC)c1O (centres undefined)
0.9	-0.29	COc1ccc(OC)c2sc(N3CCCCC3)nc12
0.65	-0.5	Cc1ccc(S(=O)(=O)/N=c2\scc(C)n2C)cc1
0.48	-1.2	O=C(O)c1cscn1
0.87	-0.06	CC(=O)N(CN1C(=O)c2ccccc2C1=O)c1ccccc1
0.82	0.76	CCOCC(=O)Nc1ccc(S(=O)(=O)NCC2CCCO2)cc1 (centres undefined)
0.49	-0.79	CC(Sc1n[nH]c(N)n1)C(=O)Nc1ccccc1-c1ccccc1 (centres undefined)
0.47	0.83	COc1cccc(C2=NOC(C(=O)NC(C)C)C2)c1 (centres undefined)
0.67	1.1	FC(F)(F)c1nc2nncn2c2c1CCCCC2
0.57	2.7	COc1ccc(NC(=O)c2ccc(S(=O)(=O)N3CCCCC3)cc2)c(OC)c1
0.91	0.89	Cc1cc(=O)oc2c3c(cc(OCC(=O)NC4CC4)c12)OC(C)(C)CC3
1.1	2.1	O=C(Nc1ccc(F)cc1)NC1CCCCCCC1
1.3	0.3	Cc1ccccc1N1CN(Cc2ccco2)CNC1=S
1.6	-0.26	O=S(=O)(Nc1cc(F)ccc1F)c1cccc2nsnc12
1.2	1.4	COC(=O)/C(=C\Nc1ccccc1)NC(=O)c1ccc(Cl)cc1Cl
2.6	-0.1	COc1ccc(OC)c(N/C(N)=N/c2nc(C)cc(C)n2)c1
0.93	0.13	O=C(NNC(=O)c1cccnc1)c1ccncc1
0.03	0.02	CC(C)(C)c1ccc(/C=C(\C#N)C(=O)NC2CC2)cc1
2.4	-0.48	O=C1c2ccccc2C(=O)N1c1ccc(Cc2ccncc2)cc1
0.47	-1.6	CC(C)NC(=O)c1ccccc1-c1nc(-c2ccccc2Cl)no1

A draw from above in order of molecular weight, lowest first:
KCNQ2 enhance	KCNQ2 enhance baseline	SMILES
0.48	-1.2	O=C(O)c1cscn1
0.93	0.13	O=C(NNC(=O)c1cccnc1)c1ccncc1
0.67	1.1	FC(F)(F)c1nc2nncn2c2c1CCCCC2
0.47	0.83	COc1cccc(C2=NOC(C(=O)NC(C)C)C2)c1 (centres undefined)
1.1	2.1	O=C(Nc1ccc(F)cc1)NC1CCCCCCC1
0.03	0.02	CC(C)(C)c1ccc(/C=C(\C#N)C(=O)NC2CC2)cc1
0.9	-0.29	COc1ccc(OC)c2sc(N3CCCCC3)nc12
0.65	-0.5	Cc1ccc(S(=O)(=O)/N=c2\scc(C)n2C)cc1
1.3	0.3	Cc1ccccc1N1CN(Cc2ccco2)CNC1=S
0.87	-0.06	CC(=O)N(CN1C(=O)c2ccccc2C1=O)c1ccccc1
2.6	-0.1	COc1ccc(OC)c(N/C(N)=N/c2nc(C)cc(C)n2)c1
2.4	-0.48	O=C1c2ccccc2C(=O)N1c1ccc(Cc2ccncc2)cc1
1.6	-0.26	O=S(=O)(Nc1cc(F)ccc1F)c1cccc2nsnc12
0.49	-0.79	CC(Sc1n[nH]c(N)n1)C(=O)Nc1ccccc1-c1ccccc1 (centres undefined)
0.82	0.76	CCOCC(=O)Nc1ccc(S(=O)(=O)NCC2CCCO2)cc1 (centres undefined)
0.57	2.7	COc1ccc(NC(=O)c2ccc(S(=O)(=O)N3CCCCC3)cc2)c(OC)c1

Carrying on.
KCNQ2 enhance	KCNQ2 enhance baseline	SMILES
0.35	-1.7	CCOC(=O)c1ccc(NC(=O)CSc2nc3c(c(=O)n2C)SC(C)C3)cc1 (centres undefined)
1.6	-0.16	Cc1ccc(NC(=O)C2CC(=O)n3c(nc4ccccc43)N2)cc1C (centres undefined)
1.2	-2.3	CC(C)N(C(=O)N1CCN(c2ccnc3cc(Cl)ccc23)CC1)C(C)C
0.19	-1.1	CC1=C(C(=O)Nc2ccccn2)C(c2ccc(Br)cc2)NC(=S)N1 (centres undefined)
0.94	0.11	CCc1nnc2c(N(C)C)nc3ccccc3n12
0.65	-0.9	COCCNC(=O)C(=O)NCC1OCCCN1S(=O)(=O)c1cccs1 (centres undefined)
2.6	-0.45	CN(C)/C=N/c1sc2c(c1C#N)CCC2
1.2	-0.71	COc1cc(C(=O)Nc2sc(C)c(C)c2C(=O)O)cc(OC)c1OC
1.7	-0.99	Cc1ccc(S(=O)(=O)Oc2ccc(/C=N/NC(=O)c3c(Cl)cnn3C)cc2)cc1
0.02	0.56	CCOc1ccc(C(=O)Nc2ccc(S(=O)(=O)N3CCOCC3)cc2)cc1OCC
1.1	0.45	CCOC(=O)C1CCN(C(=O)CCCn2c(=O)c3cccn3c3cccnc32)CC1
1.2	-1.5	N/C(=N\OC(=O)CCc1ccccc1)c1cccc(Br)c1
0.3	-1.4	COc1ccc(NC(=O)CN(C)C(=O)CN2C(=O)NC3(CCCC3)C2=O)cc1
0.11	0	O=C(NNc1ccc(Cl)cc1)c1sccc1Cl
1.4	0.32	CCCOc1ncnc2c1[nH]c1ccccc12
0.19	-0.21	CCn1c(=O)c2c(nc3n2CCS3)n(C)c1=O
0.49	1.9	COC(=O)[C@H](CC(C)C)NS(=O)(=O)c1ccccc1
0.01	2.1	COc1cc([C@H]2[C@@H]3CCCC[C@]3(O)CCN2Cc2ccccc2F)ccc1O
1.7	0.65	COC(=O)C(C)Sc1nnc(Cc2cc(=O)[nH]c(=O)[nH]2)n1-c1cccc(OC)c1 (centres undefined)
1.7	0.33	Cc1[nH]c(=O)[nH]c(=O)c1S(=O)(=O)N1CCN(c2cccc(Cl)c2)CC1
0.21	-0.25	CC(C)CCNC(=O)C(NS(=O)(=O)c1ccc2c(c1)c(=O)n(C)c(=O)n2C)c1ccccc1 (centres undefined)
0.24	-0.59	CCC(Sc1nc2ccc(N)cc2s1)C(=O)Nc1nccs1 (centres undefined)
0.67	-1.4	CCCC(=O)Nc1ccc(C(=O)Nc2nc(CC(=O)OCC)cs2)cc1
0.29	0.21	CCOc1ccc(C)cc1S(=O)(=O)Nc1ccc(Cl)cn1
4.2	0.29	N#Cc1c(C(F)(F)F)cc(-c2cccc(Cl)c2)[nH]c1=O
1.3	0.53	NS(=O)(=O)c1ccc(-n2nncc2-c2ccco2)cc1
1.1	0.52	Cc1oc2c(CN3CCCCC3C)c(O)ccc2c(=O)c1-c1ccc(Br)cc1 (centres undefined)
0.81	-0.48	COc1ccc(OC)c(NC(=O)CSc2nnc3ccc(-c4ccccn4)nn23)c1
0.33	-0.3	COc1cc(NC(=S)N2CCCC(CO)C2)cc(OC)c1 (centres undefined)
0.73	-1.2	Cc1[nH]n(-c2ccccc2)c(=O)c1N=Nc1c(O)cc(S(=O)(=O)N(C)C)c2ccccc12
0.31	-0.48	Cc1ccc(N2CC(C(=O)NCCS(=O)(=O)N3CCN(c4ccccc4F)CC3)CC2=O)cc1 (centres undefined)
1.4	1.3	Cc1ccc(NC(=O)CC2S/C(=N/N=C3\CCCc4ccccc43)NC2=O)cc1 (centres undefined)
0.6	-1.1	CCCCCC(O)(CCN1CCCCC1)c1ccc(OCC)cc1 (centres undefined)
0.19	1.1	O=C1CC(c2ccccc2Cl)c2c(sc3c(=O)[nH]c(CCl)nc23)N1 (centres undefined)
0.92	-0.43	COc1cc(/C=C/C(=O)N2CCCC2)cc(OC)c1OC
0.03	-0.81	Cc1cc(Cl)ccc1NC(=O)c1ccc2c(c1)CCN2S(C)(=O)=O
1.7	0.09	O=C1OCc2ccc(NS(=O)(=O)c3ccc(C(F)(F)F)cc3)cc21
0.97	0.13	CSc1nsc(SCC(=O)Nc2nc3ccccc3s2)n1
0.16	1.7	COc1ccccc1C(=O)N/N=C(\C)CC(=O)Nc1ccc(Cl)cn1
0.16	0.06	NS(=O)(=O)c1ccc(CNC(=O)c2cc(-c3cccnc3)nc3ccc(Cl)cc23)cc1
0.04	-0.7	COc1cc(NS(=O)(=O)c2ccc(N)cc2)nc(OC)n1
0.05	0.34	O=C(CSc1nc(O)c(Cc2ccccc2)c(=O)[nH]1)N1CCOCC1
0.58	2.5	Cc1ccc(S(=O)(=O)CCC(=O)OCC(=O)NCC(=O)Nc2cccc(C)c2C)cc1
2.3	0.42	O=C(NCc1ccc(F)cc1)c1ccc(CS(=O)Cc2ccccc2Cl)o1 (centres undefined)
0.93	1.2	C=CCn1c(NC(=O)CC)c(C(=O)OCC)sc1=S
0.38	0.29	CS(=O)(=O)N1Cc2ccccc2CC1C(=O)Nc1ccccc1C(N)=O (centres undefined)
1.2	0	CN(C(=O)CSc1nnc(-c2ccco2)n1N)C1CCCCC1
0.53	0.28	CCN(CC)CC(O)COC(c1ccccc1)c1ccccc1 (centres undefined)
0.26	0.04	COc1ccc(C(=O)Nc2nnc(SCC(=O)NC3CC3)s2)cc1
0.67	-0.11	CCc1cccc2c(C(=O)COC(=O)c3ccccc3)c[nH]c12

Next section.
KCNQ2 enhance	KCNQ2 enhance baseline	SMILES
0.14	0.09	CCC(Cc1ccccc1)NS(=O)(=O)c1ccc2c(c1)NC(=O)CO2 (centres undefined)
0.63	-0.17	Cc1cccc(C)c1Nc1ncnc(N)c1[N+](=O)[O-]
0.92	0.34	COc1ccc(CC2(CO)CCN(Cc3cnn(C)c3)CC2)cc1
0.62	1.8	COc1ccc(CCN2CCCn3c2nc2c3c(=O)n(CC(N)=O)c(=O)n2C)cc1OC
0.01	-1	Fc1ccccc1-c1nnc2c3ccccc3nc(N3CCOCC3)n12
1.5	1.7	O=C(Nc1ccc(Br)cc1)Nc1ccccc1Cl
0.12	-0.18	CC(=O)c1ccc(NC(=S)N2CCC(Cc3ccccc3)CC2)cc1
1.5	2.5	CC1CCCCN1C(=O)CSc1nnc(-c2ccccc2F)o1 (centres undefined)
0.04	-0.33	COc1ccccc1NC(=O)COc1ccc(CO)cc1Cl
0.58	1.5	CC(C)NCC(O)COCCOc1ccc(C(C)(C)C)cc1 (centres undefined)
1.1	-1.3	CCC(CC)C(=O)Nc1nc(-c2ccc3c(c2)CCN3C(=O)C2CC2)c(C)s1
0.01	0.65	COC(=O)c1cc2nc(-c3ccc(OC)cc3)cc(C(F)(F)F)n2n1
0.24	1.9	COc1ccc(/C(C)=N\NC(=O)c2ccc3c(c2)OCO3)cc1OC
2.1	-0.76	O=C1/C(=C\Nc2ccc(Cl)cc2)CCN1c1ncccn1
0.61	-0.63	CCn1cc(C(=O)NCc2ccccn2)c(=O)c2cc(F)c(N3CCN(C)CC3)cc21
0.4	-1.1	CCOC(=O)C1=C(C)N(Cc2ccc(C(=O)O)cc2)C(=O)NC1c1ccc([N+](=O)[O-])cc1 (centres undefined)
0.02	0.87	CC1CCC(C(C)C)C(=O)/C1=C\c1ccc(NC(=O)CCC(=O)O)cc1 (centres undefined)
1.1	-1.5	CCOC(=O)CN/C=C(\C#N)c1ccc(F)cc1
0.69	0.72	COc1ccc(-c2nc(S(=O)(=O)c3ccccc3)c(N3CCOCC3)o2)cc1
0.45	-1.4	O=C1CCC/C(=N/NC(=O)c2cc(NS(=O)(=O)c3cccs3)cc(NS(=O)(=O)c3cccs3)c2)C1
1.2	-0.1	CC(=O)C1=NN(c2ccccc2)C2(S1)S/C(=C\c1ccccc1)C(=O)N2c1ccccc1 (centres undefined)
0.1	0.39	CC(C)(C)c1cc(C(=O)NCCN2CCCC2)cc(C(C)(C)C)c1
1.8	1.5	Cc1ccc(NC(=O)CCn2nc(C)cc2C)cc1
0.05	0.24	O=C(COC(=O)/C=C/c1ccco1)NCc1ccccc1Cl
0.03	-0.58	COc1ccc(COC(=O)c2ccc3c(=O)n4c(nc3c2)CCC4)cc1F
0.85	0.08	COc1ccc(OC)c(C(=O)NC(CC(N)=O)c2ccc(NCCOc3ccccc3)c([N+](=O)[O-])c2)c1 (centres undefined)
0.02	0.41	Cc1ccc(C2NC(=O)Cc3ccccc32)cc1 (centres undefined)
1.8	-1.8	O=C(COc1cccnc1[N+](=O)[O-])Nc1cccc(S(=O)(=O)N2CCOCC2)c1
1.3	0.14	CC(C)C(=O)NNC(=O)CSc1ncnc2c1cnn2-c1ccccc1Cl

High-throughput results (PubChem BioAssay)
